FGF22 binding = FGF22 (human) thermal shift binding | calls only at 9.99 µM | recombinant FGF22 thermal shift, SYPRO orange fluorescence; percent of sucrose octasulfate shift, DMSO zero | AID 651658 | Q9HCT0 | 340,000 compounds, 1.5% hits;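 active = melting point raised past a set limit in the mean and every replicate; three in four hits are not shown here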
Target sequence (Q9HCT0 whole entry, looked up): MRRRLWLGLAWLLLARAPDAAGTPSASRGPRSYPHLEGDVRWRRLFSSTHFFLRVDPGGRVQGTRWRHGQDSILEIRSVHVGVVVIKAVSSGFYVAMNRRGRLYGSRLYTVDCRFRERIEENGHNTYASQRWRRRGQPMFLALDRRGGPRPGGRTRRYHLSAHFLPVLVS
AF4-AF9 inh = blocks AF4 peptide binding to human AF9; inhibition, % at 10 µM; AlphaScreen, biotin-AF4 peptide binding to FLAG-AF9; AID 651704; 350,000 compounds, 0.47% hits;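 active = every replicate reaching a set inhibition limit, whatever the replicate mean, cut at about 25% in these data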;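 note: 0% = plate neutral control median and 100% = total signal loss; the record names both 10 and 1 µM as test concentration; the first replicate is given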
Target sequence (P42568 whole entry, looked up): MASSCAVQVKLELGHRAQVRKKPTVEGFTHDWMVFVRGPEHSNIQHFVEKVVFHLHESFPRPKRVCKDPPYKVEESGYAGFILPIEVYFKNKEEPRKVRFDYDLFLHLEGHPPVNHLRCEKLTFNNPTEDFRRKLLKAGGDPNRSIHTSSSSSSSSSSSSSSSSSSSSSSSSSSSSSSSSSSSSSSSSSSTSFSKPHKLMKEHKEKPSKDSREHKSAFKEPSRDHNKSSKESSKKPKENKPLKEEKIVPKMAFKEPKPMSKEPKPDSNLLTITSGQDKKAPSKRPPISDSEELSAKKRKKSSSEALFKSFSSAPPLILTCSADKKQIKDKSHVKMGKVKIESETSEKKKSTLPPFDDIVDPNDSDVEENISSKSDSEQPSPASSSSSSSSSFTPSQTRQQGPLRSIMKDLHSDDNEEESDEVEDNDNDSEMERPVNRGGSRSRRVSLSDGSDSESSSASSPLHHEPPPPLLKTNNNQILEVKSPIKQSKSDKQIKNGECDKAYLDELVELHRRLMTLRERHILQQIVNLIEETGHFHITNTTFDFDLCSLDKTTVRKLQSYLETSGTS
Starred values were filed as active, the others as inactive; i = inactive; + = active, no number. These rows are one share of the data (hit frequency here may not be typical).

SMILES	FGF22 binding	AF4-AF9 inh
Cc1noc(C)c1NC(=O)Nc1ccc2c(c1)CC(=O)N([C@@H](C)CO)C[C@@H](C)[C@H](CN(C)C(=O)Nc1ccccc1)O2	i	-3.0
C[C@@H]1CN([C@H](C)CO)C(=O)c2cc(NC(=O)Nc3cccc4ccccc34)ccc2O[C@@H](C)CCCCO[C@@H]1CN(C)C(=O)NC1CCCCC1	i	-0.1
CCCC#Cc1cnc2c(c1)C(=O)N([C@@H](C)CO)C[C@@H](C)[C@H](CN(C)C(=O)C1CC1)O2	i	-0.1
CO[C@H]1CN(C)C(=O)c2ccc(NC(=O)C3CCOCC3)cc2OC[C@@H](C)N(Cc2nccs2)C[C@H]1C	i	2.3
CN1C(=O)c2cc(NC(=O)c3cccs3)ccc2OC[C@H]2O[C@@H](CC(=O)N3CCOCC3)CC[C@H]21	i	-0.4
C/C=C/c1cnc2c(c1)C(=O)N([C@@H](C)CO)C[C@@H](C)[C@H](CN(C)Cc1ccc(F)cc1)O2	i	-2.0
CCC(=O)NC[C@H]1[C@@H](c2ccccc2)[C@H](CO)N1C(=O)C1CCC1	i	-1.7
CCC(=O)N(C)C[C@@H]1Oc2ncc(-c3ccc(C)cc3)cc2C(=O)N([C@@H](C)CO)C[C@H]1C	i	-11.3
C[C@H]1CN([C@@H](C)CO)C(=O)c2cc(Br)cnc2O[C@@H]1CN(C)Cc1ccc2c(c1)OCO2	i	-0.8
CC(C)NC(=O)N(C)C[C@H]1OCc2ccccc2-c2c(n(C)c3ccccc23)C(=O)N([C@H](C)CO)C[C@H]1C	i	-2.6
C[C@@H](NC(=O)C[C@@H]1C=C[C@@H](NC(=O)c2cccnc2)[C@H](CO)O1)c1ccccc1	i	-12.9
CCN(C[C@H]1N[C@H](CO)[C@H]1c1ccc(-c2cccc(F)c2)cc1)C(=O)COC	i	0.8
C[C@@H]1CN([C@H](C)CO)C(=O)c2c(c3ccccc3n2C)-c2ccccc2CO[C@@H]1CN(C)C(=O)NC1CCCCC1	i	-0.7
CN1C(=O)c2cc(NC(=O)c3cc(F)cc(F)c3)ccc2OC[C@H]2O[C@H](CC(=O)O)CC[C@@H]21	i	-0.7
CN(C)C(=O)c1ccc(-c2ccc([C@@H]3[C@@H](CO)N4CCCCN(CCC(F)(F)F)C[C@H]34)cc2)cc1	i	-3.6
COc1ccc2ccccc2c1-c1c(OC)ccc2ccccc12	i	-1.6
CC(=O)N(C)C[C@@H]1Oc2ncc(C#Cc3cccnc3)cc2C(=O)N([C@@H](C)CO)C[C@H]1C	i	-10.1
C[C@@H]1CN([C@H](C)CO)C(=O)c2cccc(NC(=O)Nc3ccc(F)cc3)c2O[C@@H]1CN(C)S(=O)(=O)c1ccc(F)cc1	i	1.7
CN1CCN(C(=O)C[C@H]2C=C[C@@H](NS(=O)(=O)c3cccc(F)c3)[C@@H](CO)O2)CC1	i	-7.4
C[C@@H]1CN([C@H](C)CO)C(=O)c2cccc(NC(=O)Nc3ccc4c(c3)OCO4)c2O[C@H]1CN(C)C	i	-0.4
Cc1noc(C)c1NC(=O)Nc1ccc2c(c1)CC(=O)N([C@H](C)CO)C[C@H](C)[C@@H](CN(C)S(=O)(=O)c1ccc(Cl)cc1)O2	i	1.7
Cc1noc(C)c1S(=O)(=O)N(C)C[C@H]1OCCCC[C@@H](C)Oc2ccc(NS(C)(=O)=O)cc2C(=O)N([C@@H](C)CO)C[C@H]1C	i	-10.6
Cc1ccc(S(=O)(=O)N[C@H]2CC[C@@H](CCNC(=O)C3CCCC3)O[C@@H]2CO)cc1	i	-2.2
CC(C)NC(=O)N1CC(=O)N2[C@H](CO)[C@@H](c3ccc(/C=C/c4ccccc4)cc3)[C@H]2C1	i	16.3
COc1cccc(C#Cc2ccc([C@@H]3[C@@H](CO)N4C(=O)CN(S(=O)(=O)c5ccccc5C)C[C@H]34)cc2)c1	i	-0.8
C[C@@H]1CN([C@@H](C)CO)C(=O)Cc2cc(NS(=O)(=O)c3ccccc3)ccc2O[C@H]1CN(C)S(=O)(=O)c1cn(C)cn1	i	-0.9
COc1ccc(S(=O)(=O)N(C)C[C@@H]2Oc3ccc(NC(=O)NC4CCCCC4)cc3C(=O)N([C@H](C)CO)C[C@H]2C)cc1	i	-2.2
COc1ccc(-c2ccc([C@@H]3[C@H](C#N)N(C(=O)NC4CCCCC4)[C@H]3CO)cc2)cc1	i	0.5
O=C(N[C@H]1CC[C@@H](CC(=O)N2CCCCC2)O[C@@H]1CO)c1cccc(F)c1	i	-1.7
C[C@H](CO)N1C[C@H](C)[C@H](CN(C)CC2CCCCC2)OCCCC[C@H](C)Oc2ccc(NC(=O)c3ccncc3)cc2C1=O	i	-4.2
CN1CCN(C(=O)C[C@@H]2CC[C@@H](NC(=O)Nc3ccccc3F)[C@H](CO)O2)CC1	i	0.6
COc1ccc(C[C@@H]2CCn3cc(nn3)COC[C@@H](CC(C)C)NC2=O)cc1	i	-1.8
C[C@@H]1CN([C@@H](C)CO)C(=O)Cc2cc(NS(=O)(=O)c3ccccc3)ccc2O[C@H]1CN(C)C(=O)NC1CCCCC1	i	-1.6
COc1ccc(NC(=O)N(C)C[C@H]2Oc3ccc(NS(=O)(=O)c4ccc(Cl)cc4)cc3C(=O)N([C@@H](C)CO)C[C@H]2C)cc1	i	-3.9
CC(C)C#Cc1cnc2c(c1)C(=O)N([C@H](C)CO)C[C@H](C)[C@@H](CN(C)C(=O)c1ccccc1F)O2	i	-0.7
COc1cccc(NC(=O)N[C@H]2C=C[C@@H](CC(=O)N3CCN(C)CC3)O[C@H]2CO)c1	+	0.2
C[C@@H]1CN([C@@H](C)CO)C(=O)CCCn2nncc2CO[C@@H]1CN(C)Cc1ccccc1C(=O)O	i	-17.8
OC[C@@H]1[C@H](c2ccc(C#CC3CCCC3)cc2)[C@H]2CN(CCC(F)(F)F)CCCCN12	i	25.3*
Cc1cccc(S(=O)(=O)N2C[C@H]3[C@@H](c4ccccc42)[C@@H](CO)N3C(=O)CC2CC2)c1	i	-2.0
Cc1noc(C)c1S(=O)(=O)Nc1ccc2c(c1)C(=O)N([C@@H](C)CO)C[C@@H](C)[C@H](CN(C)Cc1ccncc1)O2	i	-3.8

An excerpt of these results, with values under each structure:
Each structure is followed by: FGF22 binding, AF4-AF9 inh
> COc1ccc(-c2ccc([C@@H]3[C@H](C#N)N(C(=O)NC4CCCCC4)[C@H]3CO)cc2)cc1
    i, 0.5
> O=C(N[C@H]1CC[C@@H](CC(=O)N2CCCCC2)O[C@@H]1CO)c1cccc(F)c1
    i, -1.7
> C[C@H](CO)N1C[C@H](C)[C@H](CN(C)CC2CCCCC2)OCCCC[C@H](C)Oc2ccc(NC(=O)c3ccncc3)cc2C1=O
    i, -4.2
> CN1CCN(C(=O)C[C@@H]2CC[C@@H](NC(=O)Nc3ccccc3F)[C@H](CO)O2)CC1
    i, 0.6
> COc1ccc(C[C@@H]2CCn3cc(nn3)COC[C@@H](CC(C)C)NC2=O)cc1
    i, -1.8
> C[C@@H]1CN([C@@H](C)CO)C(=O)Cc2cc(NS(=O)(=O)c3ccccc3)ccc2O[C@H]1CN(C)C(=O)NC1CCCCC1
    i, -1.6
> COc1ccc(NC(=O)N(C)C[C@H]2Oc3ccc(NS(=O)(=O)c4ccc(Cl)cc4)cc3C(=O)N([C@@H](C)CO)C[C@H]2C)cc1
    i, -3.9
> CC(C)C#Cc1cnc2c(c1)C(=O)N([C@H](C)CO)C[C@H](C)[C@@H](CN(C)C(=O)c1ccccc1F)O2
    i, -0.7
> COc1cccc(NC(=O)N[C@H]2C=C[C@@H](CC(=O)N3CCN(C)CC3)O[C@H]2CO)c1
    +, 0.2
> C[C@@H]1CN([C@@H](C)CO)C(=O)CCCn2nncc2CO[C@@H]1CN(C)Cc1ccccc1C(=O)O
    i, -17.8

Going on with the list:
SMILES	FGF22 binding	AF4-AF9 inh
COc1ccc(S(=O)(=O)N(C)C[C@@H]2OCCCC[C@H](C)Oc3ccc(NC(=O)Cc4ccccc4)cc3C(=O)N([C@@H](C)CO)C[C@H]2C)cc1	i	-1.7
C[C@@H]1CN([C@H](C)CO)C(=O)c2cc(NC(=O)Cn3cnnn3)ccc2O[C@H]1CN(C)Cc1ccncc1	i	-1.9
CO[C@@H]1CC[C@H]2CCN(C)C(=O)C[C@@H](c3ccccc3)CN(C)C(=O)c3cc(C#N)ccc3OC[C@@H]1O2	i	-0.5
Cc1noc(C)c1NC(=O)Nc1ccc2c(c1)C(=O)N([C@@H](C)CO)C[C@H](C)[C@@H](CN(C)S(=O)(=O)c1cn(C)cn1)OCCCC[C@H](C)O2	i	-2.3
COC(=O)C[C@H]1C[C@H]2c3cc(N)ccc3O[C@H]2[C@@H](CO)O1	i	7.0
Cc1cc2c(nc1C)CCCN2Cc1ccc(Br)cc1	i	9.4
COc1ccc2c3c([nH]c2c1)[C@H](CO)N(C(=O)C1CCC1)CC31CN(Cc2nccs2)C1	i	4.1
COc1ccc(NC(=O)N(C)C[C@H]2OCCCC[C@@H](C)Oc3ccc(NS(=O)(=O)c4cccs4)cc3C(=O)N([C@@H](C)CO)C[C@H]2C)cc1	i	-9.1
C[C@@H]1CN([C@H](C)CO)C(=O)c2cc(NS(=O)(=O)c3ccccc3)ccc2O[C@H]1CN(C)Cc1ccc(Oc2ccccc2)cc1	i	1.1
O=C(C[C@@H]1CC[C@@H](NC(=O)Nc2ccccc2)[C@@H](CO)O1)NCc1ccccn1	i	-1.6
COCC#Cc1cnc2c(c1)C(=O)N([C@@H](C)CO)C[C@@H](C)[C@@H](CN(C)Cc1ccc3c(c1)OCO3)O2	i	-0.7
O=C(C[C@@H]1C=C[C@H](NS(=O)(=O)c2ccc(F)cc2)[C@H](CO)O1)N1CCc2ccccc2C1	i	-1.9
CC(C)c1cn(CC[C@H]2CC[C@H](NC(=O)c3cccc(F)c3)[C@H](CO)O2)nn1	i	1.7
CCC(=O)N1CC2(C1)CN(CC1CCOCC1)[C@@H](CO)c1c2c2ccc(OC)cc2n1C	i	-0.8
C[C@H](CO)N1C[C@H](C)[C@@H](CN(C)Cc2ccncc2)OCCCC[C@H](C)Oc2ccc(NS(=O)(=O)c3ccc(Cl)cc3)cc2C1=O	i	-3.0
CO[C@@H]1CN(C)C(=O)c2cc(NC(=O)C3CC3)ccc2OC[C@H](C)N(C(C)=O)C[C@H]1C	i	-1.6
C[C@@H]1CCCCO[C@H](CN(C)C(=O)CCC(F)(F)F)[C@@H](C)CN([C@@H](C)CO)C(=O)c2cc(NC(=O)Nc3ccccc3)ccc2O1	i	1.9
O=C(CN1CCOCC1)N[C@H]1CC[C@H](CCNC(=O)C2CCCCC2)O[C@H]1CO	i	-0.5
C/C=C/c1ccc([C@@H]2[C@@H](C#N)N(c3ncc(CC)s3)[C@H]2CO)cc1	i	2.6
C[C@H]1CN([C@@H](C)CO)C(=O)c2cc(C#Cc3ccccn3)cnc2O[C@H]1CN(C)C(=O)c1cnccn1	i	-6.5
CO[C@@H]1CC[C@H]2CCOc3c(C#N)cccc3C(=O)N(C)C[C@@H](C)C(=O)N(C)C[C@@H]1O2	i	-8.2
C[C@@H]1CN([C@@H](C)CO)C(=O)c2cccc(NS(=O)(=O)c3cccs3)c2O[C@H]1CN(C)C(=O)Nc1cccc2ccccc12	i	-1.0
C[C@@H]1CN([C@H](C)CO)C(=O)c2cc(NC(=O)Cc3cn(C)c4ccccc34)ccc2O[C@@H]1CN(C)C(=O)Nc1ccc(C(F)(F)F)cc1	i	-0.9
C[C@H]1CCCCO[C@H](CN(C)S(=O)(=O)c2cn(C)cn2)[C@@H](C)CN([C@@H](C)CO)C(=O)c2cc(NC(=O)c3ccccc3)ccc2O1	i	-4.1
COc1cccc(-c2ccc3c(c2)O[C@H](CN(C)C(C)=O)[C@@H](C)CN([C@@H](C)CO)S3(=O)=O)c1	i	1.6
CO[C@H](CN(C)S(=O)(=O)c1ccc(F)cc1)[C@@H](C)CN(C(=O)Nc1ccccc1F)[C@@H](C)CO	i	-1.0
O=C([C@H]1[C@H](CO)[C@H]2Cn3c(ccc(/C=C/c4ccccc4)c3=O)[C@H]2N1CC1CC1)N1CCOCC1	i	-3.0
C[C@@H]1CN([C@H](C)CO)C(=O)c2cccc(NC(=O)Nc3ccccc3)c2O[C@H]1CN(C)Cc1ccc(C(=O)O)cc1	i	-0.8
C/C=C/c1ccc2c(c1)O[C@@H](CN(C)Cc1cccnc1)[C@H](C)CN([C@@H](C)CO)S2(=O)=O	i	4.4
C[C@H](O)C#Cc1ccc([C@@H]2[C@@H](CO)N3CCCCN(C(=O)c4ccc5c(c4)OCO5)C[C@@H]23)cc1	i	1.2
CCCCCCCCN1C(=O)[C@@H](CC(=O)NCc2ccc(OC)c(OC)c2)C[C@@]2(C(=O)OC)C1=C[C@H](C(C)(C)C)O[C@@H]2C	i	2.1
O=C(C[C@H]1CC[C@@H](NC(=O)c2ccncc2)[C@H](CO)O1)NCC1CC1	i	-3.7
CCCN1C[C@@H](C)[C@@H](OC)CN(C)C(=O)c2ccc(NC(=O)c3cnccn3)cc2OC[C@@H]1C	i	-1.7
CN1CCN(C(=O)C[C@@H]2CC[C@@H]3[C@H](COC[C@H](O)CN3C(=O)Nc3ccc(F)cc3)O2)CC1	i	-3.2
COc1ccc(NC(=O)N(C)C[C@@H]2OCCCC[C@@H](C)Oc3ccc(NC(=O)Nc4ccccc4)cc3C(=O)N([C@@H](C)CO)C[C@@H]2C)cc1	i	0.2
CO[C@@H]1CN(C)C(=O)c2cc(NS(=O)(=O)c3ccc(C)cc3)ccc2OC[C@@H](C)N(C)C[C@H]1C	i	0.7
C[C@@H]1CCCCO[C@@H](CN(C)C(=O)c2ccncc2)[C@H](C)CN([C@H](C)CO)C(=O)c2cc(NC(=O)c3ccncc3)ccc2O1	i	1.2
C[C@@H]1CN([C@H](C)CO)C(=O)c2cc(C#CCN(C)C)cnc2O[C@H]1CN(C)C(=O)CN1CCOCC1	i	-3.7
CN1C(=O)c2cc(NC(=O)C3CCOCC3)ccc2OC[C@H]2O[C@@H](CC(=O)NCc3ccc4c(c3)OCO4)CC[C@H]21	i	-0.7

Compound activity deposited in PubChem BioAssay by Broad Institute.
